MbtI inh: MbtI salicylate synthase inhibitors, primary screen, biochemical, fluorescence intensity; purified MbtI enzyme, fluorescence intensity read-out; inhibition, %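 (about 17 µg/mL by stock and volumes)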; 100,000 compounds, 0.89% hits; AID 493033, 2011;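 active = above 50% in both replicates, above 80% if mildly self-fluorescent; inactive = the rest, strongly fluorescent compounds included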;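 note: 0% = mean of negative and 100% = mean of positive controls; one replicate is shown; some compounds called inactive have numbers as strong as hits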
MenB inh: M. tuberculosis MenB inhibitors, primary screen, biochemical, absorbance | 100,000 compounds, 0.43% hits | inhibition, %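 (about 12 µg/mL by stock and volumes)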 | MenB enzyme assay, absorbance read-out; some hits fall short of the stated cut | AID 540299, 2011 | 1,4-dihydroxy-2-naphthoyl-CoA synthase (Mycobacterium tuberculosis (strain ATCC 25618 / …;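 active = mean of two replicates above 30%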;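 note: 0% = no compound and 100% = wells with inactive enzyme; the first replicate is given; strong numbers were not always called active; inactives centre near -10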
Target sequence (P9WNP5 whole entry, looked up): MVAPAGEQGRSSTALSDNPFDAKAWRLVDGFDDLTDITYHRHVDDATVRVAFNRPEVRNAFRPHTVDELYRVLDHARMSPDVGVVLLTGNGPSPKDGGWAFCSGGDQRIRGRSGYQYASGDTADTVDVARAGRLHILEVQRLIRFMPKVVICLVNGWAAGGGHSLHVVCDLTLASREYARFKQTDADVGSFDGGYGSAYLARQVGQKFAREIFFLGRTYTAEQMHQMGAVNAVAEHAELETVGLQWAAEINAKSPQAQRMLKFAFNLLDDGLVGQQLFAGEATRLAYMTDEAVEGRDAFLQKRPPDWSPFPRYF
PV pol inh: poliovirus RdRp elongation inhibitors, primary screen, biochemical, fluorescence polarization, total intensity; Genome polyprotein (Poliovirus type 1 (strain Mahoney)), P03300; poliovirus polymerase elongation; stronger effect = lower value; % elongation, % (compound at 16.7 µg/mL); 150,000 compounds, 0.66% hits; AID 588519, 2011; in the data active = % elongation below about 90%; note: some results filed as inactive read as strong as hits
Target sequence (P03300 1749-2209 limits assumed): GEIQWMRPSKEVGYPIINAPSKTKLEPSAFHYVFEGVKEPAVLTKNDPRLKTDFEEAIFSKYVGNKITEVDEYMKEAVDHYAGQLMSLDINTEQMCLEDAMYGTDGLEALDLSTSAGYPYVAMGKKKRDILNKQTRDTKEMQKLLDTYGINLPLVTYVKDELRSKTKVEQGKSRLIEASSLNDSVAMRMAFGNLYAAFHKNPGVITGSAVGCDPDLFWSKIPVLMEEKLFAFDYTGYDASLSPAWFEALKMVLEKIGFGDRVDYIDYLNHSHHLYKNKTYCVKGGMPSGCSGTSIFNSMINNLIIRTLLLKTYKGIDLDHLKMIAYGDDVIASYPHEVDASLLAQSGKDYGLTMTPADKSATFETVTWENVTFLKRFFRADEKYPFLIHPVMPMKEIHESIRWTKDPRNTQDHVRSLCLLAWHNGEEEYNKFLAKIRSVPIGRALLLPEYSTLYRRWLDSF
PV pol inh intensity: also measured in PV pol inh; calls as there; % elongation; measured here: total intensity read-out; formula for this scale not given here;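 total fluorescence in place of polarization; lower means less elongation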
Active calls of the source: *; i = inactive; . = not tested or not shown; & = joins results of further samples.

SMILES	MbtI inh	MenB inh	PV pol inh	PV pol inh intensity
Cc1c(C(=O)N2CCOCC2)oc2ccc3c(c12)C(=O)CC(C)(c1ccc(Cl)cc1)O3 (stereo not given)	-2.5	-4.0	102.0	103.0
COC(=O)c1cccc(Oc2nc(Nc3ccccc3F)nc(N3CCC4C=CC=CC4C3)n2)c1 (stereo not given)	-3.0	-5.4	102.0	105.0
CCCc1cc(C(=O)O)n[nH]1	-1.4	14.9	100.0	102.0
O=C(c1ccc(Cl)cc1)N1CCc2sccc2C1c1ccc(Cl)cc1 (stereo not given)	2.2	4.3	101.0	103.0
COc1ccc(OC)c(NC(=S)NCc2ccc3[nH]c(C)cc3c2)c1	-7.5	-48.4	102.0	104.0
O=c1cnn(-c2ccccc2)c(-c2ccccc2)c1	-10.1	-23.0	103.0	111.0
Cc1ccc(C(=O)OCC(=O)N2c3ccccc3CC2C)cc1 (stereo not given)	5.8	-17.6	101.0	105.0
O=C1CC(NCCc2ccccc2)C(=O)N1c1ccccc1 (stereo not given)	-2.6	-14.1	101.0	103.0
C=CCc1c(C)[nH]c(=S)[nH]c1=S	42.4	28.1	102.0	102.0
O=C(Cc1n[nH]c(=O)c2ccccc12)NCCN1C(=O)S/C(=C\c2ccc(F)cc2)C1=O	23.6	-32.5	105.0	107.0
NC(=O)Cc1ccc(C(=O)CSc2nnc(-c3cccs3)n2C2CC2)s1	8.8	2.4	112.0	124.0
COc1ccc(N2C(=O)CC(C(=O)NC3CCCCC3)C2c2ccc(F)cc2)cc1 (stereo not given)	-7.4	4.5	103.0	103.0
COc1ccc(OCC(=O)Sc2ccc(Cl)cc2)cc1	.	-20.1	81.0*	86.0*
COc1cccc(CNCC(=O)N2C(C)CCCC2C)c1 (stereo not given)	-4.2	22.8	99.0	103.0
O=C(N/N=C/C=C/c1ccccc1)c1n[nH]c2c1CCC2	5.1	-13.6	101.0	102.0
COC(=O)C1=C(C)N(c2ccccc2)/C(=C/c2ccc(OC)cc2)C1=O	21.9	-127.2	102.0	102.0
O=C(Nc1ccc2nc(N3CCOCC3)sc2c1)C1CCCN1C(=O)c1cccs1 (stereo not given)	-18.2	2.8	104.0	105.0
CCOC(=O)C1=C(CC)Nc2ccccc2N=C1N	10.1	-9.5	100.0	105.0
CCOc1ccc(C(=O)NC2CCN(CC(=O)NCc3ccccc3)CC2)cc1	-7.4	-23.4	103.0	100.0
COc1ccc(Cl)cc1N(CC(=O)Nc1ccccc1C(=O)N1CCOCC1)S(C)(=O)=O	-2.8	-3.3	99.0	103.0
CC(C)(C)C1CCC(OC(=O)c2ccncc2)CC1 (stereo not given)	-2.6	.	100.0	97.0
Cc1ccc(NC(=O)CC2SC(=Nc3ccc(C)cc3C)N(CCN3CCOCC3)C2=O)cc1 (stereo not given)	5.5	-0.2	103.0	112.0
c1ccc(C2=N[C@H](c3ccccc3)[C@H](c3ccccc3)N2)cc1	-15.9	14.1	106.0	111.0
Cc1nc2ccccc2c2oc(C(=O)NCCC3=CCCCC3)cc12	15.8	-23.9	97.0	102.0
Cc1ccc(S(=O)(=O)Nc2ccc(C(O)(C(F)(F)F)C(F)(F)F)cc2)cc1	-10.7	-21.7	107.0	109.0
Cc1ccc(S(=O)(=O)NCCc2cc3ccc(C)cc3[nH]c2=O)cc1	1.4	-19.8	99.0	96.0
O=C(CN1C(=O)N(c2ccc(Cl)cc2)S(=O)(=O)c2ccccc21)N1CCCc2ccccc21	5.1	-3.5	104.0	108.0
COc1ccc2[nH]c(C)c(CCN(Cc3cccs3)C(=S)Nc3cccc(C)c3)c2c1	-4.2	-52.7	17.0	119.0
CC(C)CC(=O)N1C(=O)c2cccc3c(S(=O)(=O)N(C)C)ccc1c23	2.0	-11.9	.	.
CCn1c(=O)n(-c2ccccc2)c(=O)c2c3c(sc21)CN(C(C)=O)CC3	-4.6	-0.1	104.0	107.0
COCCNC(=O)c1nnc(Cc2ccc(OC)c(OC)c2)o1	-7.9	3.3	102.0	105.0
CC(C)C(NC(N)=O)C(=O)O (stereo not given)	-0.2	-28.1	101.0	102.0
CCS/C(=C(\C#N)C(N)=O)c1ccc(-c2ccccc2)[nH]1	13.4	i	105.0	108.0
CCCNS(=O)(=O)c1ccc(NC(=O)COc2ccccc2)cc1	-5.5	-31.0	105.0	99.0
CCCCN(CC)C(=O)Cn1ncc2c([nH]c3ccc(C)cc32)c1=O	124.5	-4.8	104.0	102.0
O=c1cnc2ccccc2[nH]1	116.6	-6.9	102.0	104.0
CS(=O)(=O)N(c1ccccc1)C1CSC1	-7.8	-34.3	106.0	103.0
Cc1ccc(OCc2n[nH]c(=S)n2C2CCCCC2)c2c1CCC2	70.4*	-62.5	99.0	98.0
CCn1c(C(=O)NCc2ccc(Cl)cc2)cc2oc3ccccc3c21	88.2	-42.2	103.0	105.0
NC(=O)NCCc1cccs1	-13.2	-6.3	.	.
COc1ccc2oc(-c3ccc(OC)c(OC)c3)cc(=O)c2c1	-402.3	-12.2	101.0	103.0
Cc1nnc2c3ccccc3nc(Nc3ccc4c(c3)OCCO4)n12	-16.1	6.3	101.0	97.0
O=C(CSc1nc2scc(-c3ccccc3)c2c(=O)n1-c1ccccc1)c1ccco1	-73.0	-33.1	103.0	104.0
NC(N)=NC(N)=Nc1cccc(C(=O)O)c1	19.2	6.3	104.0	94.0
CC(C)=NNC(=O)Cc1cn2ccsc2n1	-3.3	15.0	104.0	104.0
NC(=O)c1cc(-c2ccccc2)sc1N	-61.6	18.5	104.0	100.0
Cc1nc(CNS(=O)(=O)c2cccs2)cs1	6.1	-1.5	103.0	107.0
O=C(O)Cc1ccc(-c2ccccc2)cc1	-6.8	-9.0	99.0	102.0
N#CC(C#N)(Cc1ccccc1)Cc1ccccc1	-10.8	2.6	105.0	111.0
COc1ccc(CCN=C2SCCN2C(=O)COc2ccccc2C#N)cc1	-0.1	0.8	.	.
CCn1c(N)c(-c2csc(C)n2)c(=O)n(CC(=O)NCCC2=CCCCC2)c1=O	3.2	-6.1	105.0	101.0
NNC(=O)c1ccc(CS(=O)(=O)c2ccccc2)o1	20.8	-11.5	101.0	96.0
O=C(Cn1ccc2cc(S(=O)(=O)N3CCCC3)ccc21)NCCc1ccccc1	-22.7	-11.8	103.0	103.0
CC(C)NC(=O)c1cnn(-c2cccc(F)c2)c1-n1cccc1	3.5	-14.2	99.0	100.0
CCN(CC)C(=O)c1cc(-c2ccc(Cl)c(Cl)c2)on1	-5.2	-7.2	100.0	102.0
CC(CCCN1CCC2(CC1)C(=O)NCN2C)c1ccc(F)cc1 (stereo not given) (tested in a mixture with another compound)	.	4.6	100.0	103.0
CC1(C)C(C=C(Cl)Cl)C1C(=O)OC(C#N)c1cccc(Oc2ccccc2)c1 (stereo not given)	-17.9	-11.2	105.0&103.0	98.0&98.0
NC1=NCC(O)=C1c1nc2ccccc2s1	-24.2	-6.9	100.0	102.0
Nc1ncncc1C(=O)O	-3.2	-1.4	102.0	93.0
COC(=O)C1=CN(Cc2ccc(Cl)cc2)C=C(C(=O)OC)C1c1cccc(Cl)c1	95.9	-39.7	102.0	106.0

Next part:
SMILES	MbtI inh	MenB inh	PV pol inh	PV pol inh intensity
N#CCCSc1nsc(N)n1	7.4	-25.5	103.0	102.0
Cc1cc(=O)oc2c(/C=N\NC(=O)c3ccc(Br)cc3O)c(O)ccc12	-38.3	-49.3	107.0	126.0
Cc1onc(C(=O)NN)c1-c1csc(COc2ccc(Cl)cc2)n1	-2.9	-4.9	107.0	100.0
O=C1/C(=C\c2ccccc2)SC(=S)N1CNc1ccccc1	13.0	-22.2	100.0	99.0
O=C1NN=C(c2ccccc2)CC1c1c[nH]c2ccccc12 (stereo not given)	12.7	-14.2	102.0	96.0
COc1ccc2c(CNCC3CCCO3)c(C(=O)O)n(Cc3ccc(C)cc3)c2c1 (stereo not given)	-15.7	10.1	101.0	105.0
O=C(Cn1nc(Cc2ccncc2)c2ccccc2c1=O)NCCCN1CCCCC1	-3.0	9.8	102.0	105.0
COc1ccc(-c2nc3cc4c(cc3o2)Oc2ccccc2N4)cc1	-9.9	-3.1	110.0	119.0
Cc1cc(C(F)(F)F)nc2sc(C(=O)c3cccc(Cl)c3)c(N)c12	2.5	-65.5	95.0	166.0
CC(C)(C)CC(C)(C)NC(=O)Nc1cccc(Cl)c1	-6.7	-42.8	100.0	99.0
CC1=NN(c2ccccc2)C(=O)C1C(=O)c1ccccc1Br (stereo not given)	-0.4	-3.9	102.0	105.0
Cn1c(C(=O)NCCCN2CCCC2)cc2c(=O)[nH]c3ccccc3c21	106.5	-12.1	97.0	100.0
Cc1ccc(/C=C2\C(=O)ON=C2c2ccccc2)o1	-5.3	-24.5	96.0	109.0
CCOC(=O)N1CCN(C(=O)c2ccc(S(=O)(=O)c3ccc(C)cc3)c(NC(C)=O)c2)CC1	-1.8	5.8	102.0	103.0
COc1ccc(/C=C2\CCc3ccccc3C2=O)cc1COc1ccc(F)cc1	-2.5	-19.8	103.0	104.0
CCC(C)NC(=O)c1ccc(CS(=O)Cc2ccc(C)cc2)o1 (stereo not given)	-5.5	2.2	102.0	106.0
CN(CC(O)COCc1ccccc1F)C1CCCCC1 (stereo not given)	14.2	-6.5	101.0	105.0
CC1(C)CC(=O)c2c(Nc3ccccc3)noc2C1	-4.5	-1.3	101.0	103.0
COc1ccccc1N=c1oc2ccc(Cl)cc2cc1C(N)=O	-0.8	.	101.0	96.0
O=C(CN1CCN(Cc2ccccc2)CC1)NCCc1ccccc1	0.1	-21.6	100.0	98.0
COc1cc(OC)nc(NC2OC(=O)c3ccccc32)n1 (stereo not given)	45.5	-25.9	101.0	96.0
CN1CCN(Cc2ccc(O)c3ncccc23)CC1	.	26.2	126.0	136.0
CCN(Cc1ccccc1)C(=O)Nc1cn(C)c(=O)c2ccccc12	-16.0	-6.2	98.0	94.0
Cc1cccc(C(=O)Oc2ccc(C)c(C)c2)c1	13.5	5.1	101.0	102.0
CCN(CC)S(=O)(=O)c1cccc(C(=O)OCC(=O)Nc2cccc(C#N)c2)c1	-4.6	-2.3	105.0	111.0
COc1ccc2[nH]c(=O)cc(C(=O)O)c2c1	-5.4	30.9	99.0	103.0
CCCn1c(=O)n(C)c(=O)c2c(SCC(=O)N3CCCC3=O)nc(C(C)C)nc21	0.9	10.3	93.0	101.0
COc1ccc(S(=O)(=O)NC(C)C)cc1-n1cnnn1	-3.6	7.2	105.0&100.0	105.0&102.0
CCc1cccc(NS(=O)(=O)c2ccc3c(c2)CCC(=O)N3)c1	-0.2	-8.6	102.0	106.0
C/C(=C/C(=O)C(F)(F)C(F)F)Nc1ccccc1	2.3	-18.1	97.0	101.0
Cc1onc(-c2ccccc2Cl)c1C(=O)N(C)C1CCCCC1	-2.5	2.1	99.0	109.0

Source: PubChem BioAssay

Compounds were not picked by outcome. About 1.9% of those tested had a hit in this group.
